CHO parental Ca = signal in parental CHO cells, OX1R antagonist counter-screen. inhibition, % at 5.6 µM. parental CHO-K1, ATP-induced calcium, Fluo-8 fluorescence. actives 0.63% (n = 330,000). AID 463079;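 active = inhibition above that plate's mean sample inhibition plus 3 SD, cut at about 26% in these data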;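 also: 0% = ATP-challenged DMSO wells and 100% = DMSO wells without ATP; some compounds past the cut are filed as inactive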
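test system = CHO parental line | reagent = ATP stimulus | measured by = intracellular calcium via Fluo-8 no-wash fluorescent dye | control set = ATP and no-ATP DMSO wells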
V1R ag counter = V1a receptor agonism, counter-screen for OXTR agonists; P37288; CHO-V1R cells, Fluo-8 calcium fluorescence, agonist mode; 0% DMSO, 100% 3 nM vasopressin; activation, % at 3 µM; actives 0.25% (n = 320,000); AID 2797;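 active = activation above the mean activation of all tested compounds plus 3 SD, per screening run, cut at about 20% in these data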;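 also: signal is peak over basal fluorescence ratio across a 100 second FLIPR read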
TAAR1 antag = human TAAR1 antagonism | Q96RJ0 | CHO RD-HGA16 TAAR1, Fluo-8 calcium fluorescence, antagonist | inhibition, % at 3 µM | actives 1.5% (n = 360,000) | AID 624466;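 active = inhibition above a per-plate cutoff, the mean inhibition of test compounds on that plate plus 3 SD, cut at about 49% in these data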;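 also: 0% = DMSO plus EC80 beta-PEA response and 100% = DMSO alone without agonist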
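Test system – hTAAR1-expressing CHO RD-HGA16 cells, Gα16-coupled · Reagent – β-PEA at EC80 concentration, post-compound challenge · Compound dosing – 3 µM, single point · Timing – 140 s kinetic read after compound, 140 s after agonist · Detection – Fluo-8 intracellular calcium dye fluorescence, real-time kinetic reads · Control set – DMSO and EC80 PEA controls · Repeats – n of 1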
GPR7 antag = blocks human GPR7 receptor signaling; P48145; GPR7-expressing cells, fluorescence antagonist assay; inhibition, % at 4.4 µM; actives 1.1% (n = 290,000); in the data active = inhibition above about 16%, passing the limit was not always enough;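 also: cells stimulated with the agonist NPW; 0% = agonist with vehicle and 100% = vehicle without agonist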
Target sequence (P48145 whole entry, looked up): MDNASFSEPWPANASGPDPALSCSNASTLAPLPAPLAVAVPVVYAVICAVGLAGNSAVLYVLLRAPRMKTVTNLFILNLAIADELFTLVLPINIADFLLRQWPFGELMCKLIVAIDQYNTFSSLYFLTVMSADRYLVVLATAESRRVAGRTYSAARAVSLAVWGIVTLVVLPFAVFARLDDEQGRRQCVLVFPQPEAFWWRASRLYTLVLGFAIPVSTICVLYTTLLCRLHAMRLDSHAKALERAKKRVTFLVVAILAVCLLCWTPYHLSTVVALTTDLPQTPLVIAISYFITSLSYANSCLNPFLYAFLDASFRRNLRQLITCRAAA
OXTR ag = human OXTR agonism; CHO-OTR cells, Fluo-8 calcium fluorescence; normalized: DMSO 0%, oxytocin 100%; P30559; activation, % at 3 µM; actives 0.32% (n = 320,000);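 active = activation above the mean of all tested compounds plus 3 SD, cutoff set per screening run, cut at about 20% in these data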;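 also: peak over basal fluorescence ratio from a 100 s FLIPR kinetic read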
Target sequence (P30559 whole entry, looked up): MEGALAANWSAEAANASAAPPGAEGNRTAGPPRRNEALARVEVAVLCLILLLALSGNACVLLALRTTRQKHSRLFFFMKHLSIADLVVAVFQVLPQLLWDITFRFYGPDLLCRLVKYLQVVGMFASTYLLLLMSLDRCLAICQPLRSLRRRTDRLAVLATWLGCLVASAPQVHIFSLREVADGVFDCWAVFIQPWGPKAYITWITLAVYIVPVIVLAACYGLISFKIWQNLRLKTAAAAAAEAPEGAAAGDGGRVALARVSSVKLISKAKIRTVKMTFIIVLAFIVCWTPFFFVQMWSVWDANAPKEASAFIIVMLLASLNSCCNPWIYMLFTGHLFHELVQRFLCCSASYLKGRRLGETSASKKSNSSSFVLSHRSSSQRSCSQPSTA
OXTR potentiator = potentiates the human oxytocin receptor response; P30559; CHO-OTR cells, Fluo-8 calcium fluorescence, potentiator mode; 0% = oxytocin EC15, 100% = EC100; activation, % at 3 µM; actives 0.061% (n = 320,000);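 active = activation above that plate's cutoff, the mean activation of tested compounds plus 3 SD, cut at about 6.6% in these data, passing the limit was not always enough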;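 also: 100% uses oxytocin at 75 nM as the full agonist control; some results filed as inactive read as strong as hits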
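Dosing: Single dose, 3.0 µM nominal final compound concentration | Material: Human OTR in CHO cells | Technique: Kinetic Fluo-8 calcium fluorescence | Benchmarks: EC15 oxytocin alone as 0%, 75 nM oxytocin as 100% | Probe or stimulus: Oxytocin at about EC15, sub-maximal agonist stimulus | Incubation: Compound 6 min at room temperature before oxytocin, 100 s read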
The depositor's hits bear a star; · = no result given; & = joins results of further samples. Some of the compounds tested (hit frequency here may not be typical).

Start of the listing, in advance (2 entries):
Every second line gives: V1R ag counter	TAAR1 antag	CHO parental Ca	GPR7 antag	OXTR ag	OXTR potentiator
1. CCC[C@@H]1C[C@@H](C(=O)N[C@H]([C@@H](C)O)[C@H]2O[C@H](SC)[C@H](O)[C@@H](O)C2O)N(C)C1 (stereo partly specified)
 : 1.5	-22	-5	1	2.5	-2
2. CC(=O)Oc1ccc(C(c2ccc(OC(C)=O)cc2)c2ccccn2)cc1
 : 1.5	-11	1	66*	-1.3	-6

This part in full, from the start:
Every second line gives: V1R ag counter	TAAR1 antag	CHO parental Ca	GPR7 antag	OXTR ag	OXTR potentiator
1. CCC[C@@H]1C[C@@H](C(=O)N[C@H]([C@@H](C)O)[C@H]2O[C@H](SC)[C@H](O)[C@@H](O)C2O)N(C)C1 (stereo partly specified)
 : 1.5	-22	-5	1	2.5	-2
2. CC(=O)Oc1ccc(C(c2ccc(OC(C)=O)cc2)c2ccccn2)cc1
 : 1.5	-11	1	66*	-1.3	-6
3. COC(=O)Nc1nc2ccc(C(=O)c3cccs3)cc2[nH]1
 : 0.9	-12	-18	·	-1.1	-21
4. CN(C)C(=O)Oc1cccc([N+](C)(C)C)c1
 : 0.8&-0.1	3&-13	-1&-2	-11&-13	0.8&-0.7	1&-4
5. NNC(=O)c1ccncc1
 : 0.8	-7	-8	-17	2.2	0
6. Cn1c(=O)c2[nH]cnc2n(C)c1=O
 : 0.0	8	-4	-11	1.1	-8
7. C[C@H]1O[C@H](O[C@H]2[C@H](O)[C@@H](O)[C@@H](O[C@H]3[C@H](O)[C@@H](O)C(O)O[C@@H]3CO)O[C@@H]2CO)[C@H](O)[C@@H](O)[C@@H]1N[C@H]1C=C(CO)[C@@H](O)[C@H](O)[C@H]1O (stereo partly specified)
 : 0.0	·	-11	-12	0.0	0
8. CNC(=O)Oc1ccc2c(c1)[C@]1(C)CCN(C)C1N2C (stereo partly specified)
 : 1.1&0.9	-15	-5&-6	·	0.5&0.4	-2&5
9. CNCC(=O)O
 : 1.3	-5	10	·	1.6	-2
10. C[N+](C)(C)CCOC(=O)CCC(=O)OCC[N+](C)(C)C
 : 1.0	-13&16	-7	·	0.3	-2
11. CCC1(O)CC2CN(CCc3c([nH]c4ccccc34)C(C(=O)OC)(c3cc4c(cc3OC)N(C=O)C3C(O)(C(=O)OC)C(OC(C)=O)C5(CC)C=CCN6CCC43C65)C2)C1 (stereo unspecified)
 : ·	1	·	·	·	·
12. CC1CCC(NC(=O)N(CCCl)N=O)CC1 (stereo unspecified)
 : 0.4	-12	-8	·	-0.7	-2
13. O=C1CCC(N2C(=O)c3ccccc3C2=O)C(=O)N1 (stereo unspecified)
 : 1.2	-8	-3	-5	0.1	0
14. CC[N+](CC)(CC(=O)Nc1c(C)cccc1C)Cc1ccccc1
 : -0.2	-21	-7	·	-0.8	0
15. CC[C@H]1OC(=O)[C@H](C)[C@@H](O[C@H]2C[C@@](C)(OC)[C@@H](O)[C@H](C)O2)[C@H](C)[C@@H](O[C@@H]2O[C@H](C)C[C@H](N(C)C)[C@H]2O)[C@](C)(O)C[C@@H](C)CN(C)[C@H](C)[C@@H](O)[C@]1(C)O
 : -0.5	2	0	·	-1.3	-2
16. CC(=O)S[C@@H]1CC2=CC(=O)CC[C@]2(C)[C@H]2CC[C@@]3(C)[C@@H](CC[C@@]34CCC(=O)O4)[C@H]12
 : -0.1	-8	-21	·	-2.0	10
17. Cn1c(=O)c2c(ncn2CC(O)CO)n(C)c1=O (stereo unspecified)
 : 0.4	3	-17	-17	0.7	-3
18. NC1C2CN(c3nc4c(cc3F)c(=O)c(C(=O)O)cn4-c3ccc(F)cc3F)CC12 (stereo unspecified)
 : -1.1	·	3	-6	-0.5	-4
19. Nc1ccc(S(=O)(=O)Nc2nccs2)cc1
 : 1.1	-18	0	·	0.1	0
20. C[C@]12CC[C@@H]3c4ccc(OC(=O)c5ccccc5)cc4CC[C@H]3[C@@H]1CC[C@@H]2O
 : -0.3	15	-5	-1	-0.9	-14

Nos. 1 through 17, reprinted for reference:
Every second line gives: V1R ag counter	TAAR1 antag	CHO parental Ca	GPR7 antag	OXTR ag	OXTR potentiator
1. CCC[C@@H]1C[C@@H](C(=O)N[C@H]([C@@H](C)O)[C@H]2O[C@H](SC)[C@H](O)[C@@H](O)C2O)N(C)C1 (stereo partly specified)
 : 1.5	-22	-5	1	2.5	-2
2. CC(=O)Oc1ccc(C(c2ccc(OC(C)=O)cc2)c2ccccn2)cc1
 : 1.5	-11	1	66*	-1.3	-6
3. COC(=O)Nc1nc2ccc(C(=O)c3cccs3)cc2[nH]1
 : 0.9	-12	-18	·	-1.1	-21
4. CN(C)C(=O)Oc1cccc([N+](C)(C)C)c1
 : 0.8&-0.1	3&-13	-1&-2	-11&-13	0.8&-0.7	1&-4
5. NNC(=O)c1ccncc1
 : 0.8	-7	-8	-17	2.2	0
6. Cn1c(=O)c2[nH]cnc2n(C)c1=O
 : 0.0	8	-4	-11	1.1	-8
7. C[C@H]1O[C@H](O[C@H]2[C@H](O)[C@@H](O)[C@@H](O[C@H]3[C@H](O)[C@@H](O)C(O)O[C@@H]3CO)O[C@@H]2CO)[C@H](O)[C@@H](O)[C@@H]1N[C@H]1C=C(CO)[C@@H](O)[C@H](O)[C@H]1O (stereo partly specified)
 : 0.0	·	-11	-12	0.0	0
8. CNC(=O)Oc1ccc2c(c1)[C@]1(C)CCN(C)C1N2C (stereo partly specified)
 : 1.1&0.9	-15	-5&-6	·	0.5&0.4	-2&5
9. CNCC(=O)O
 : 1.3	-5	10	·	1.6	-2
10. C[N+](C)(C)CCOC(=O)CCC(=O)OCC[N+](C)(C)C
 : 1.0	-13&16	-7	·	0.3	-2
11. CCC1(O)CC2CN(CCc3c([nH]c4ccccc34)C(C(=O)OC)(c3cc4c(cc3OC)N(C=O)C3C(O)(C(=O)OC)C(OC(C)=O)C5(CC)C=CCN6CCC43C65)C2)C1 (stereo unspecified)
 : ·	1	·	·	·	·
12. CC1CCC(NC(=O)N(CCCl)N=O)CC1 (stereo unspecified)
 : 0.4	-12	-8	·	-0.7	-2
13. O=C1CCC(N2C(=O)c3ccccc3C2=O)C(=O)N1 (stereo unspecified)
 : 1.2	-8	-3	-5	0.1	0
14. CC[N+](CC)(CC(=O)Nc1c(C)cccc1C)Cc1ccccc1
 : -0.2	-21	-7	·	-0.8	0
15. CC[C@H]1OC(=O)[C@H](C)[C@@H](O[C@H]2C[C@@](C)(OC)[C@@H](O)[C@H](C)O2)[C@H](C)[C@@H](O[C@@H]2O[C@H](C)C[C@H](N(C)C)[C@H]2O)[C@](C)(O)C[C@@H](C)CN(C)[C@H](C)[C@@H](O)[C@]1(C)O
 : -0.5	2	0	·	-1.3	-2
16. CC(=O)S[C@@H]1CC2=CC(=O)CC[C@]2(C)[C@H]2CC[C@@]3(C)[C@@H](CC[C@@]34CCC(=O)O4)[C@H]12
 : -0.1	-8	-21	·	-2.0	10
17. Cn1c(=O)c2c(ncn2CC(O)CO)n(C)c1=O (stereo unspecified)
 : 0.4	3	-17	-17	0.7	-3

Additional compounds
Every second line gives: V1R ag counter	TAAR1 antag	CHO parental Ca	GPR7 antag	OXTR ag	OXTR potentiator
21. C1CCN2CC3CC(CN4CCCC[C@@H]34)[C@H]2C1
 : ·	-6	·	·	·	·
22. CC(C(=O)O)c1cccc(Oc2ccccc2)c1 (stereo unspecified)
 : ·	-23	·	·	·	·
23. NCC1CCC(C(=O)Oc2ccc(CCC(=O)O)cc2)CC1 (stereo unspecified)
 : 0.6	-20	-4	·	1.1	5
24. CC(=O)C1(O)CCC2C3CC(C)C4=CC(=O)CCC4(C)C3CCC21C (stereo unspecified)
 : ·	-4	·	·	·	·
25. CN1C(C(=O)Nc2ccccn2)=C(O)c2ccccc2S1(=O)=O
 : 1.1&0.5	-8	-9&-7	-2&-6	0.6&-0.2	-4&5
26. CCC[C@@H]1C[C@@H](C(=O)NC(C(C)Cl)[C@H]2O[C@H](SC)[C@H](O)[C@@H](O)[C@H]2O)N(C)C1 (stereo partly specified)
 : 0.3	-4	-8	-15	0.2	6
27. Cc1nccn1CC1CCc2c(c3ccccc3n2C)C1=O (stereo unspecified)
 : 0.1&0.3	7&-20	-15&-5	-4	-0.9&-0.1	2&3
28. Nc1nc(F)nc2c1ncn2[C@@H]1O[C@H](CO)[C@@H](O)[C@@H]1O
 : 1.7	-17	0	-5	0.3	-4
29. COc1ccc2c3c1OC1CC(O)C=CC31CCN(C)C2 (stereo unspecified)
 : 0.9&-0.4	-5&-1	-1&-6	-16&-2	0.1&0.4	-2&3
30. CC(C)(C)NC[C@H](O)COc1cccc2c1CCCC2=O
 : 0.4	-24	-10	·	-0.9	-7
31. CC(C)NC[C@H](O)c1ccc(O)c(O)c1
 : -0.8	-23	-6	·	-0.2	2
32. CCCC(=O)c1ccc(O)cc1O
 : ·	-18	·	-1	·	·
33. CC(C)(c1ccc(O)cc1)c1ccc(O)cc1
 : 8.8	3	7	12	12	-16
34. CC(=O)OCC(COC(C)=O)OC(C)=O
 : 0.1	-18	-8	·	1.1	-3
35. CCOC(=O)C1=C(C)NC(C)=C(C(=O)OC)C1c1cccc([N+](=O)[O-])c1 (stereo unspecified)
 : -0.7	34	-13	-15&-4	-2.4	0
36. NC(=O)c1ccccc1O
 : 0.4	1	-2	10	0.7	-16
37. Cc1onc(-c2ccccc2)c1-c1ccc(S(N)(=O)=O)cc1
 : 3.6	9	-2	-16	3.1	-5
38. CC(=O)OCC(=O)C1(O)CCC2C3CCC4=CC(=O)C=CC4(C)C3C(O)CC21C (stereo unspecified)
 : -0.2	-27	-21	-2	1.3	3
39. NCC[C@H](O)C(=O)N[C@@H]1C[C@H](N)[C@@H](O[C@H]2O[C@H](CN)[C@@H](O)[C@H](O)[C@H]2O)[C@H](O)[C@H]1O[C@H]1O[C@H](CO)[C@@H](O)[C@H](N)[C@H]1O
 : ·	-13	·	-7	·	·
40. CCCNC(=O)NS(=O)(=O)c1ccc(Cl)cc1
 : 0.7	3	-8	-8	0.1	3

Continuation:
Every second line gives: V1R ag counter	TAAR1 antag	CHO parental Ca	GPR7 antag	OXTR ag	OXTR potentiator
41. Cc1nccn1C[C@@H]1CCc2c(c3ccccc3n2C)C1=O
 : 0.7	4	-12	-3	0.1	2
42. CC1=C(CC(=O)O)c2cc(F)ccc2C1=Cc1ccc(S(C)(=O)=O)cc1
 : 1.1	-4	-3	·	0.1	-2
43. CC1=C(CC(=O)O)c2cc(F)ccc2/C1=C\c1ccc(S(C)=O)cc1 (stereo unspecified)
 : 0.5	12	-6	·	1.8	-4
44. C[N+](C)(C)C[C@H](O)CC(=O)O
 : -0.1	-23	9	·	-0.2	-2
